Screening results: PubChem BioAssay, National Center for Advancing Translational Sciences (NCATS)
Rango release inh: inhibition of RanGTP-driven Rango-importin beta dissociation | Biochemical FRET Rango-importin beta, RanGTP-induced dissociation | Potency, µM (series often up to 46.1 µM), without a hit: at the highest dose activity change, negative = inhibition | 0.071% of 340,000 active; active means falling FRET ratio curve, often poorly fitted, with flat reads before Ran was added; inconclusive means other falling curves, or compound fluorescence or quenching; inactive means flat or rising ratio curve;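 also: potency is read from the fitted curve at half-maximal effect; % of control where 0% means no effect; nearly all actives have a fitted effect of over 45% in size; -100% = wells without RanGTP and RCC1; the record marks most hits as doubtful in a second field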
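FRET read at 45 min, room temperature: inhibitors block the CFP/YFP signal rise when RanGTP (0.6 uM Ran, 2 mM GTP, 0.2 uM RCC1) frees Rango (0.1 uM) from importin beta (0.25 uM). Pre-read after 5 min compound exposure flags interference.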
Rango complex inh: Rango-importin beta binding inhibition; 0.031% of 340,000 active; AID 540263; Q14974; Potency, µM (highest dose often 92.2 µM), inactives show at the highest dose inhibition of complex formation; Rango CFP/YFP FRET sensor + importin beta, 45 min; active = rising FRET ratio curve, often small or poorly fitted; inconclusive = mostly compound fluorescence or quenching in the first reads; inactive = flat curves in all reads;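 also: potency is read from the fitted curve at half-maximal effect; 0% = DMSO wells and 100% = buffer wells lacking importin beta; nearly all actives have a fitted effect of over 15% in size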
Target sequence (Q14974 whole entry, looked up): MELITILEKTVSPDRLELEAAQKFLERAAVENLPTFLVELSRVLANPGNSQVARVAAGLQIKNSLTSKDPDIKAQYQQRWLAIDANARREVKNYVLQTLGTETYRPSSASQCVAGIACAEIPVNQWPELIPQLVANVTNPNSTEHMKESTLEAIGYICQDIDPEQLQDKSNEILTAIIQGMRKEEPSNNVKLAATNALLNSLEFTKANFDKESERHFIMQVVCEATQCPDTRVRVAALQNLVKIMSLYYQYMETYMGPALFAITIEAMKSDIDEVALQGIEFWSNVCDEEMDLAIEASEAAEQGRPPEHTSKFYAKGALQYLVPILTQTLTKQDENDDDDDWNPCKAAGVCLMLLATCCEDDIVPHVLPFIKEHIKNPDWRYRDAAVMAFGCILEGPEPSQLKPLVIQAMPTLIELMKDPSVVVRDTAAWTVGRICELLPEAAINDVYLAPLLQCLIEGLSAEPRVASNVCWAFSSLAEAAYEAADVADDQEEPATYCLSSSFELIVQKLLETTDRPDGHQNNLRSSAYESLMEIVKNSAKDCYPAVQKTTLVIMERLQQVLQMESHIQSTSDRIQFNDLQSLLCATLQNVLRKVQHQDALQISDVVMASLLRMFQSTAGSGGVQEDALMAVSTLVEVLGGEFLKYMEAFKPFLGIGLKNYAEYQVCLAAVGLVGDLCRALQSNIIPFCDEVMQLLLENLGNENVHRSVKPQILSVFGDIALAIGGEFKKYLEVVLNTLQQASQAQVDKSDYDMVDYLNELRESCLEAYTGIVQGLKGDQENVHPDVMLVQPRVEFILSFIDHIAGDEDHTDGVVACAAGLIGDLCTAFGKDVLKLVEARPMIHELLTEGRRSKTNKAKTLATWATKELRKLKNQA
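FRET biosensor Rango (snurportin 1 IBB between N-terminal EYFP and C-terminal Cerulean), 50 nM in PBS/1 mM DTT/0.02% Tween-20/0.1% BSA, preincubated 5 min RT with compound; 0.125 microM importin beta added, 45 min RT, CFP/YFP FRET ratio read.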
GLA inh pH 4.5: inhibitors of human alpha-galactosidase A at pH 4.5 | P06280 | purified enzyme, 4-MU-alpha-Gal fluorescence, pH 4.5 | activity change, negative = inhibition, % at 105 µM | 230,000 tested, under 10 active | AID 1467; inconclusive = small, poorly fitted or top-dose-only inhibition, or a rising curve; inactive = flat fitted curve, though single readings scatter; no compound was filed as active;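 also: 0% = full activity with enzyme and -100% = basal without enzyme; dose as in the result columns while the protocol names 77 µM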
miR-21 reporter: raises the signal of a miR-21 reporter; 340,000 tested, under 10 active; HeLa miR-21 FLuc reporter, luciferase, 48 h; AID 2288; Potency, µM (highest dose often 38.3 µM), inactives show top-dose reporter change, positive = more light; active = well fitted rising curve with a large enough effect; inconclusive = small, poorly fitted or top-dose-only effect; inactive = no such curve, though single readings can be large or run the other way;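 also: % of control where 0% means no effect; miR-21 action dims this reporter so a rising signal means less miR-21 action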
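HeLa miR-21-FLuc reporter line, endogenous miR-21; 2000 cells/well in DMEM/10% FBS; compound titration up to ~40uM final, 48 h, 37 degree Celsius; luciferase detection reagent, 15 min lysis, CCD luminescence.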
* marks the source's active call; other numbers are inactive results; ? = inconclusive; · = not tested or not shown; & = joins results of further samples; [ ] = remark or other dose. Some of the compounds tested; the hit share may differ from the screen's.

SMILES | Rango release inh | Rango complex inh | GLA inh pH 4.5 | miR-21 reporter
CC1CCc2c(sc3ncnc(NCc4cccnc4)c23)C1 (configuration not stated) | -6.9% | 3.8% | -1.8 | -42.8%
C/C(=N\NC(=O)NC1CCCCC1)c1ccc(OC(F)F)cc1OC(F)F | 10.2% | 3.1% | -11.2 | 2.5%
CC(=O)CCc1oc2ccc(C)cc2c1-c1ccc(C)o1 | -20.7% | 0.6% | 7.9 | -5.2%
C=CC[C@@H](CC(=O)N(CCO)Cc1ccccc1)C(=O)N[C@H](COC(=O)[C@@H](CC=C)Cc1ccc(F)cc1)C(C)(C)C | 0.4% | -1.7% | · | ·
CCN(CC)c1ccc(/C=N/NC(=O)c2ccc(Br)o2)cc1 | ? | ? | -7.9 | -32.5%
CCOc1ccc(OCC)c(NC(=O)C2CCCN2S(=O)(=O)c2cccc3cccnc23)c1 (configuration not stated) | 26.9% | 0.7% | -6.1 | 20.6%
COc1cccc(-c2nnc3sc(-c4ccco4)nn23)c1 | 13.5% | 0.0% | -7.5 | -34.2%
CCCCCC[n+]1c(-c2ccc(Cl)cc2Cl)csc1Nc1ccccc1 | 20.0% | -6.4% | 2.4 | 3.6%
Cc1cc2nsnc2c(S(=O)(=O)NCC(=O)O)c1C | 0.6% | -0.9% | 0.0 | -3.0%
CN1CCc2c(sc(/N=C/c3c[nH]c4ccccc34)c2C#N)C1 | ? | ? | -6.9 | -11.4%
CCCc1cc(=O)[nH]c(SCC(=O)NC(=O)c2ccccc2)n1 | -2.0% | -4.1% | 3.6 | -5.2%
CN=C1SC(CC(=O)Nc2ccc(N3CCOCC3)cc2)C(=O)N1C (configuration not stated) | 5.3% | -2.5% | -3.9 | 2.1%
O=C(CCC(=O)c1cccs1)Nc1ccc(F)c(F)c1F | -13.4% | ? | -0.6 | -10.0%
CN(CC(=O)Nc1cccc(F)c1)C(=O)c1cccc(S(=O)(=O)N2CCN(c3ccc(F)cc3)CC2)c1 | 0.1% | -2.3% | · | ·
COC(=O)c1sccc1S(=O)(=O)NC(C)c1cnn(-c2ccc(OC)cc2)c1C (configuration not stated) | -0.1% | 0.4% | · | -4.1%
CCN(CC(=O)Nc1ccc(NC(C)=O)cc1)C(=O)C(c1ccccc1)c1ccccc1 | 25.4% | -0.7% | 3.6 | 0.6%
CCOc1ccc(N(CC)C(=O)c2nn(-c3ccc(OC)cc3)c(=O)c3c2c2ccccc2n3C)cc1 | 27.3% | 4.6% | -11.9[21.1 µM] | -6.2%&2.8%
CCO[C@@H]1OC(C(=O)NCc2ccccc2)=C[C@H](C2CC2)[C@H]1CCCO | -5.4% | -1.3% | -1.2 | 0.8%
CCOC(=O)C1(Cc2cccc(OC)c2)CCN(CC=C(C)C)CC1 | 19.5% | -0.8% | -2.3 | 0.6%
CCn1c2ccccc2c2nnc(SCc3ccc(C(=O)OC)o3)nc21 | -0.5% | 0.1% | -1.9 | -24.0%
Cn1cnnc1SCc1ccc(C(=O)N=Nc2c(O)n(C)c3ccccc23)cc1 | -5.0% | -0.3% | 0.6 | -8.6%
CC(C)(C)C1=C(C#N)C(c2ccc3c(c2)OCO3)C(C#N)=C(N)O1 (configuration not stated) | ? | 2.9% | -8.6 | -7.2%
O=C(/C=C/c1ccccc1)Nc1cccc(C(=O)O)c1 | 1.5% | 1.8% | -7.9 | 21.4%
Cc1cc(=O)oc2cc(OCC(=O)OCC(=O)Nc3c(C)n(C)n(-c4ccccc4)c3=O)ccc12 | 1.3% | 0.1% | 16.5 | 4.7%
O=C(NC1CCCC1)C1CC(=O)N(c2ccc(F)cc2)C1 (configuration not stated) | 12.6% | 1.4% | · | -0.8%
C=CCN(C(=O)CSc1nnnn1C)c1nc(-c2ccccc2)cs1 | -6.4% | -0.1% | · | ·
O=C(C[C@@H]1C/C=C/CCCC(=O)O[C@H](c2ccccc2)CNC1=O)NCCO | -1.0% | 0.6% | · | ·
O=C(C[C@H]1C/C=C\C[C@@H](Cc2ccc(F)cc2)C(=O)OC[C@@H]2CCCN2C1=O)NCCO | -9.4% | -1.3% | · | ·
O=C(CCc1nnc(C2(c3ccc(Cl)cc3)CCC2)o1)NC1CC1 | 14.7% | -3.4% | 4.2 | -11.2%
CC(NC(=O)c1cn(C)c2ccc(S(=O)(=O)N3CCCC3)cc2c1=O)c1ccc2c(c1)OCCO2 (configuration not stated) | -15.9% | 1.4% | ? | -0.8%
COc1cc(NC(=O)c2ccc(COCC(F)(F)F)o2)cc(OC)c1OC | 3.6% | -1.2% | -0.2 | 11.6%
OC(c1ccccc1)C(NCCNCc1ccccc1)c1ccccc1 (configuration not stated) | -10.9% | 1.0% | · | ·
Cc1cccc2cc(COC(=O)c3cccs3)c(=O)[nH]c12 | 5.3% | -0.5% | -5.1 | -2.8%
O=C(Nc1ccc(F)cc1)c1cc(-c2ccccc2)no1 | -11.3% | 4.6% | 5.2 | 1.0%
CCCc1nnc(SCC(=O)Nc2ccc(OCC)cc2)n1N | 3.8% | ? | 3.0 | -5.7%
Cc1c(S(=O)(=O)N2CCN(c3cccc(Cl)c3)CC2)c(=O)n(C)c(=O)n1C | ? | 4.9% | · | -2.6%
Cn1c(CNC(=O)CCNC(=O)c2ccccc2F)cc(=O)n(C)c1=O | -1.9% | 0.1% | · | -1.1%
C=CCc1ccc(OCCn2cncn2)c(OC)c1 | 43.9% | -1.4% | · | -8.3%
COc1ncnc2c1cnn2-c1ccccc1 | 12.0% | -0.9% | 9.3 | -42.2%
CCOc1ccc(-n2c(SCC(=O)Nc3ccc(Br)cc3)nc3n[nH]c(C)c3c2=N)cc1 | 14.9% | -0.3% | 6.0 | 1.1%

Fetched by compound from the entries so far, 4 records:
SMILES | Rango release inh | Rango complex inh | GLA inh pH 4.5 | miR-21 reporter
CCN(CC)c1ccc(/C=N/NC(=O)c2ccc(Br)o2)cc1 | ? | ? | -7.9 | -32.5%
O=C(NC1CCCC1)C1CC(=O)N(c2ccc(F)cc2)C1 (configuration not stated) | 12.6% | 1.4% | · | -0.8%
COC(=O)c1sccc1S(=O)(=O)NC(C)c1cnn(-c2ccc(OC)cc2)c1C (configuration not stated) | -0.1% | 0.4% | · | -4.1%
O=C(CCC(=O)c1cccs1)Nc1ccc(F)c(F)c1F | -13.4% | ? | -0.6 | -10.0%

Continued.
SMILES | Rango release inh | Rango complex inh | GLA inh pH 4.5 | miR-21 reporter
Cc1cc(C(=O)CSc2nc(N)cc(=O)[nH]2)c(C)n1CCc1ccc(F)cc1 | -1.2% | -0.2% | -2.7 | 15.8%
CCOC(=O)[C@@H](CCc1ccccc1)N[C@H](C)C(=O)N1[C@H](C(=O)O)C[C@@H]2CCC[C@@H]21 | -11.5% | 1.4% | · | -1.7%
Cc1ccccc1OCC(=O)Nc1ccc(S(=O)(=O)N2CCOCC2)cc1 | 3.8% | -3.3% | · | -6.4%
COc1ccc(CCNC(=O)COC(=O)c2cccs2)cc1OC | 10.3% | -0.6% | · | 0.0%
Cc1cc(C)nc(NC(=O)c2ccc(COc3ccccc3Cl)cc2)c1 | 0.9% | -2.7% | -6.3 | 5.2%
O=C(CCc1nnc(COc2ccccc2)o1)NCCc1cccs1 | -1.6% | 0.4% | -0.2 | -0.4%
Cc1nnc(NC2=NCCC2)o1 | 8.8% | 1.0% | -5.0 | 2.2%
Cc1ccc(C)c2c1cc(C)c1nnc(SCC(=O)NCc3ccc4c(c3)OCO4)n12 | 1.7% | -0.1% | 6.5 | -12.0%
COc1cc2c(C(=O)N3CCOCC3)c(CSc3ccccc3)n(C)c2cc1Br | -17.7% | -1.9% | 0.5 | 14.8%
CSc1cccc(N2C(=O)C3CCCN3C2=S)c1 (configuration not stated) | -13.5% | -3.0% | · | -0.4%
C#CCOCCOCCOCCNc1nc(N2CCOCC2)nc(N2CCN(C(=O)[C@H]([C@@H](C)CC)n3cc([C@@H](N)Cc4ccc(O)cc4)nn3)CC2)n1 | -12.9% | -4.1% | 4.5 | -0.7%
CCOC(=O)c1ccc(NC(=S)N2CCN(Cc3ccccc3)CC2)cc1 | -2.5% | -1.8% | 0.1 | -9.3%
CS(=O)(=O)c1ccc(-c2nnc(NC(=O)c3ccc(S(=O)(=O)N4CCCC4)cc3)o2)cc1 | 0.2% | 2.2% | · | ·
CC1CC(NC(=O)c2cc3c(=O)n4ccccc4nc3n2C)CC(C)(C)C1 (configuration not stated) | -26.4% | ? | · | -4.4%
O=C(Nc1ccccc1Cl)Oc1ccc2ccccc2c1 | · | · | 4.0 | -6.4%
CSc1ncc(Cl)c(C(=O)Nc2ccc(S(=O)(=O)Nc3nccc(C)n3)cc2)n1 | -11.5% | -0.4% | · | -27.2%&-6.0%
COc1cccc(-c2ccc(=O)n(CC(=O)NCCN3CCOCC3)n2)c1 | 12.5% | 3.9% | -5.7 | -9.0%
NS(=O)(=O)c1ccc(CCNC(=O)c2cc([N+](=O)[O-])ccc2N2CCCCC2)cc1 | 0.0% | -2.6% | · | 0.3%
CCOC(=O)C1CCN(CC(=O)Nc2c(C(=O)OC)[nH]c3ccc(Cl)cc23)CC1 | 3.3% | 0.3% | -6.5 | 21.9%
O=C(NNC1=Nc2cc([N+](=O)[O-])ccc2OC1)c1ccccc1Cl | 13.3% | 0.0% | -2.7 | 2.4%
COc1cccc(/C=N/NC(=O)CC2C(=O)NN=C2C)c1O (configuration not stated) | ? | ? | 7.7 | 0.2%
CC(=O)N1C(C(=O)O)CSC1c1ccc(C)cc1 (configuration not stated) | -20.1% | -3.7% | 0.1 | -7.8%
COc1ccccc1/C=C(/NC(=O)c1ccccc1)C(=O)NCCN1CCOCC1 | -9.0% | 6.0% | · | -0.3%
C#CC[N+](CC)(CC)CC#Cc1cccc(Cl)c1 | 15.8% | 0.4% | 1.7 | 1.5%
COc1ccc(NC(=S)NCc2ccccn2)cc1OC | -0.1% | 4.0% | 2.5 | -1.4%
CN(CC(=O)Nc1c(Cl)cccc1Cl)C(=O)C1CSC2(C)CCC(=O)N12 (configuration not stated) | 6.0% | 1.4% | · | ·
O=C(O)CC(Sc1n[nH]c(=S)s1)C(=O)O (configuration not stated) | 12.5% | 6.5% | -2.1 | 0.3%
O=C(CCCCCNc1nc(=S)[nH]c2ccccc12)NCCc1ccccc1 | 0.5% | 1.6% | -5.0 | -9.6%
CC(=Nc1cc(C(=O)c2ccccc2)ccc1N)C1=C(O)CC(C)(C)CC1=O | 4.5% | 1.4% | 0.9 | -44.5%
Cc1c(C(=O)N2CCN(C)CC2)oc2ccc(S(=O)(=O)N3CCOCC3)cc12 | 0.2% | 0.3% | -3.8 | -0.9%
CCc1sc(C(=O)Nc2ccc(NC(C)=O)cc2)cc1C | 0.0% | 0.3% | 5.6 | -29.2%
Cc1ccc(/C=N/NC(=O)Cc2ccc(Cl)cc2)c(O)c1 | -6.2% | -2.4% | · | 14.5%
O=C(c1nc2ccc(Cl)cn2c1CN1CCC(CO)CC1)N1CCc2ccccc2C1 | -3.1% | -3.4% | · | -5.9%
Cc1c(NC(=S)N/N=C/c2ccc(O)cc2)c(=O)n(-c2ccccc2)n1C | 0.2% | 3.7% | -7.7 | 0.2%
CC[C@]12c3[nH]c4ccccc4c3CCN1C(=O)C(CC(=O)NCCC1=CCCCC1)C[C@@H]2C(=O)N1CCN(C(=O)C2CC2)CC1 (some centres not stated) | 19.5% | -0.1% | · | ·
CC(C)(C)OC(=O)NCCCC[C@H](NC(=O)c1nc[nH]c1C(=O)N1CCN(C(=O)OC(C)(C)C)CC1)C(=O)OC(C)(C)C | -1.3% | 4.0% | 0.6 | 8.3%
Cc1cccc2c1CC(C)(C)NC2=C(C#N)C#N | -9.2% | 3.7% | 1.0 | -28.8%
O=C(NCc1ccccc1)C(c1ccc(F)cc1)N(C(=O)c1csnn1)C1CC1 (configuration not stated) | 4.6% | ? | · | -1.3%
COc1ccccc1NC(=O)C(=O)NNS(=O)(=O)c1ccc2ccccc2c1 | 15.7% | 0.0% | 2.7 | -2.4%
COc1ccccc1N=C(C)C1=C(O)CSC1=O | -19.9% | -4.1% | 6.5 | -22.8%
